PKM2 act = increases activity of human pyruvate kinase M2; purified PKM2, Kinase-Glo ATP luminescence, activation; response scale: 0% is enzyme alone, no compound; Potency, µM (highest dose often 57.5 µM), inactives show at the highest dose activation, hits mostly activators; 260,000 tested, 0.34% active; AID 1631; note: potency is the fitted concentration of half-maximal effect; % is set by controls: 0 for no effect and ±100 for the full control effect; nearly all actives have a fitted effect of over 55% in size
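Purified hPK-M2 (>95% pure) converted ADP (0.1 mM final) to ATP with 0.5 mM PEP in 50 mM imidazole pH7.2, KCl, MgCl2, Tween 20, BSA; 1 h at room temperature. ATP detected by Kinase-Glo luminescence.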
KCNH2 3.1 inh = KCNH2 3.1 (human) potassium channel inhibition | U2OS KCNH2 3.1, thallium flux FluxOr; hits give low values | activity change, % (tested at about 1.8 µM) | 340,000 tested, 0.95% active;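 active = maximum activity change below -70%; inconclusive = maximum activity change from -70% to -50%; inactive = maximum activity change above -50%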;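 note: thallium influx rate constant from kinetic fluorescence after stimulation buffer; % is set by controls: 0 for no effect and ±100 for the full control effect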
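Steps: virus added to U2OS suspension (4 h, RT, dark); medium with 10% FBS added, cells plated, 37 C overnight; FluxOr/Red40 loading buffer 45 min RT; stimulation buffer, 2 min kinetic read; rate constant normalized.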
B2AR arrestin = beta2AR (human) beta-arrestin recruitment activity; Potency, µM (top dose mostly 46.1 µM), without a hit: at the highest dose activation, most hits filed as activators; P07550; AID 492947; 330,000 tested, 0.02% active; beta-arrestin recruitment to beta2AR, cell-based reporter;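 note: potency is the fitted concentration of half-maximal effect; 0% = DMSO controls and full agonism = EC100 isoproterenol or metaproterenol; nearly all actives have a fitted effect of over 65% in size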
Coupling enz = coupling enzyme interference in Giardia aldolase counter-screen. coupling enzyme system counterscreen, AmpLite Red fluorescence. activity change, negative = inhibition, % at 58.2 µM, hits read low. 290,000 tested, 0.67% active; in the data active = activity change below about -30%; note: % is set by controls: 0 for no effect and ±100 for the full control effect
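Compounds tested against the coupling enzymes alone at 57.5 uM final; readout was AmpLite Red fluorescence (525/598 nm) after 20 min at RT.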
Giardia killer = Giardia lamblia killing. Giardia lamblia trophozoite viability. 340,000 tested, 0.15% active. activity change, % at 7.66 µM, hits read low; in the data active = activity change below about -80%; inconclusive = between about -30% and that limit;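 note: parasites exposed to compound for two days anaerobically before the ATP read; % is set by controls: 0 for no effect and ±100 for the full control effect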
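Compounds were tested on trophozoites seeded at 100 cells/well and held 48 hrs at 37 deg C anaerobically. An ATP-based luminescent kit measured the remaining live cells.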
USP2a inh = blocks human ubiquitin-specific protease USP2a. O75604. USP2 core, Ub-CHOP2 coupled fluorogenic reporter, 485/531. Potency, µM (highest dose often 38.3 µM), for the others: top-dose activity change, negative = inhibition, hits mostly inhibitors. 330,000 tested, 0.01% active;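 note: potency is the fitted concentration of half-maximal effect; plate controls were DMSO wells for no effect and full inhibition by NEM control for full effect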
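Cell-free coupled assay: 10nM USP2 core preincubated 30min RT with compound in Tris-HCl pH 8.0/CaCl2/CHAPS buffer, then 25nM Ub-CHOP2 and 25nM reporter substrate; fluorescence (Ex 485/Em 531) read after 60min RT, normalized to NEM inhibition, concentration-response curves fitted.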
GALK inh = galactokinase (human) inhibition; Purified GALK, Kinase-Glo residual ATP luminescence; 270,000 tested, 0.007% active; P51570; Potency, µM (titrated, usually from 57.5 µM), inactives show top-dose activity change, negative = inhibition, most hits filed as inhibitors; note: potency is the fitted concentration of half-maximal effect; % is set by controls: 0 for no effect and ±100 for the full control effect
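GALK at 5 nM final was combined with compound, 35 uM ATP and 100 uM galactose in HEPES pH8.0 with MgCl2 and DTT. The reaction ran one hour at room temperature before luminescent ATP detection.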
hERG WT inh = KCNH2 (human, wildtype) channel inhibition; Q12809; U2OS, BacMam KCNH2, thallium flux FluxOr; hits give low values; activity change, % at 1.84 µM; 340,000 tested, 0.37% active;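 active = maximum activity change below -70%; inconclusive = maximum activity change between -70% and -50%; inactive = maximum activity change above -50%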; note: % is set by controls: 0 for no effect and ±100 for the full control effect
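U2OS cells were transduced with wild-type KCNH2 virus (2.03 x 10^8 / mL) for 4 h at room temperature, then cultured overnight at 37 C. Thallium flux was read with FluxOr dye. Rate constants were normalized to DMSO controls.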
MLL CXXC-DNA inh = inhibitors of human MLL CXXC domain-DNA interaction; MLL-CXXC / FITC-HOXA9 DNA fluorescence polarization; Q03164; AID 2662; Potency, µM (series often up to 115 µM), without a hit: top-dose activity change, negative = inhibition, most hits filed as inhibitors; 290,000 tested, 0.037% active; active = well fitted inhibition curve with a large enough effect in the polarisation, with a control signal flat, not every such curve was filed as active; inconclusive = small, poorly fitted or top-dose-only effect, or effect the other way, or a change in a side signal; inactive = no such curve, though single readings can be large or run the other way; the % refers to the polarisation; note: potency is the fitted concentration of half-maximal effect
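Purified MLL-CXXC (added from a 7 uM solution) was preincubated 5 min at ambient with pinned compounds in 50 mM Tris-HCl pH 7.5, 50 mM NaCl, 1 mM DTT, 0.05% BSA. Fluorescein-labeled HOX-A9 DNA (50 nM solution) followed, 30 min, then polarization read.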
TRPV1 agonist = human TRPV1 agonism; AID 540275; Q8NER1; 320,000 tested, 0.19% active; activation, % at 8.33 µM; TRPV1-expressing cells, Fluo-8 calcium influx, agonist mode; in the data active = activation above about 80%; inconclusive = between about 30% and that limit; note: 0% is about no effect
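Fluo-8 calcium influx in TRPV1-expressing cells, kinetic read (ex 480/em 520 nm). Compound added and read 3 min for agonist activity, followed by capsaicin at EC20 final and 2 min further read for enhancement.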
* = called active by the depositor; ? = inconclusive; . = no result given; [ ] = another dose, or the depositor's remark. Unless noted, calls come from the whole dose curve; as a rule, active = well fitted curve in the direction sought with a large enough effect; inconclusive = small, poorly fitted or top-dose-only effect, or another doubt; inactive = no such curve, though single readings can be large; an effect the other way counts as inactive or inconclusive. A portion of the library; the hit share may differ from the screen's.

SMILES	PKM2 act	KCNH2 3.1 inh	B2AR arrestin	Coupling enz	Giardia killer	USP2a inh	GALK inh	hERG WT inh	MLL CXXC-DNA inh	TRPV1 agonist
O=C1CC(c2ccc(F)c(Br)c2)C2=C(CCCC2=O)N1 (stereo unspecified)	-12.2%	-0.5	-0.4%	3.5	17.7	-1.0%	-0.1%	-7.6	-3.6%	8.7
CCc1n[nH]c(=S)n1N=C1CCC(C)CC1 (stereo unspecified)	-5.9%	4.1	-0.4%	3.2	1.9	0.0%	0.6%	.	-4.9%	0.8
CCN(C(=O)CSc1ccc2ccccc2n1)C1CCS(=O)(=O)C1 (stereo unspecified)	0.0%	10.4	0.0%	0.9	45.9[activator]	4.1%	-7.1%	7.6	6.9%	0.7
CCOc1ccccc1NS(=O)(=O)c1ccc2[nH]c(=O)[nH]c2c1	4.9%	-13.3	-0.3%	1.1	-0.8	0.2%	7.7%	6.0	4.2%	-3.1
O=C(N(c1ccccn1)c1ccccn1)C12CC3CC(CC(C3)C1)C2	-2.8%	-6.6	0.0%	-0.5	8.2	1.5%	2.8%	-0.8	3.7%	2.8
CCN(CCCNC(=O)C1CCN(S(=O)(=O)c2c(C)[nH]c(=O)[nH]c2=O)CC1)c1cccc(C)c1	1.3%	0.4	0.5%	-3.1	-8.4	0.9%	0.2%	-4.4	-6.3%	0.2
Cc1ccc(C(=O)OCC(=O)Nc2sc3c(c2C#N)CCC3)cc1	1.0%	6.4	-0.6%	3.2	-4.9	0.2%	0.3%	-26.9	-7.2%	-8.3
CC(C)c1ccc(C2NC(=S)NC3=C2C(=O)CC(C)(C)C3)cc1 (stereo unspecified)	1.2%	-9.0	-0.5%	2.4	7.9	-1.1%	0.6%	-16.3	-3.4%	13.9
CC(C)c1nc2n[nH]c(N)c2c2c1CCC2	-0.5%	-8.7	-1.0%	1.8	3.6	-1.7%	-5.8%	-13.6	7.1%	-0.1
O=C(Nc1nnc(Cc2ccccc2F)s1)c1ccccc1Cl	1.4%	-32.2	-0.7%	0.0	8.3	0.0%	.	-3.6	8.3%	5.0
CCOC(=O)N1CCN(C(=O)c2ccc3c(c2)NC(=O)/C(=C\c2cccc(C)c2)S3)CC1	0.1%[0.46 µM]	-4.5	-0.1%	0.4	?	-0.3%	-1.4%	2.0	4.2%	-2.8
O=C(Nc1ccc2c(c1)Cc1ccccc1-2)c1ccc(Br)o1	-1.2%	-7.0	-0.5%	1.8	0.1	-1.7%	0.5%	-3.5	1.9%	?
Cc1ccc(NC(=O)Cn2nnc(C(=O)NCc3ccco3)c2N)cc1	-17.1%	6.4	-0.2%	0.9	-14.4	-2.8%	1.0%	8.6	-11.8%	-2.5
Cc1ccc(-n2c(SCC(N)=O)nnc2-c2ccco2)cc1	0.0%	-0.5	0.0%	0.9	-18.8	-0.3%	0.0%	15.1	-2.8%	0.6
CCC(=O)c1ccc(OCC(=O)N2CCc3cc(OC)c(OC)cc3C2)cc1	2.3%	-13.4	-0.4%	-0.2	1.4	-1.3%	-5.7%	-10.6	0.4%	11.0

Some entries already given, reduced to hERG WT inh.
| SMILES | hERG WT inh |
| --- | --- |
| CCN(CCCNC(=O)C1CCN(S(=O)(=O)c2c(C)[nH]c(=O)[nH]c2=O)CC1)c1cccc(C)c1 | -4.4 |
| Cc1ccc(C(=O)OCC(=O)Nc2sc3c(c2C#N)CCC3)cc1 | -26.9 |

New compounds follow
SMILES	PKM2 act	KCNH2 3.1 inh	B2AR arrestin	Coupling enz	Giardia killer	USP2a inh	GALK inh	hERG WT inh	MLL CXXC-DNA inh	TRPV1 agonist
c1ccc(Cn2c(-c3ccccc3)nc3nc4ccccc4nc32)cc1	0.8%	-11.8	-1.0%	-2.4	-3.3	4.1%	4.1%	9.9	5.6%	21.1
Clc1cccc(-c2nn3c(COc4ccccc4)nnc3s2)c1	1.2%	.	-0.3%	2.1	.	-1.0%	4.9%	.	0.3%	6.1
CCC(C)(C)n1nnnc1C(c1cccs1)N1CCc2ccccc21 (stereo unspecified)	23.5%	-22.8	0.2%	-1.0	-4.3	-1.5%	0.2%	-11.8	-3.1%	-5.0
CCN(CCCNC(=O)C1CCN(S(=O)(=O)CC)CC1)c1cccc(C)c1	4.3%	-9.2	0.2%	.	-5.3	-1.1%	0.0%	0.1	5.6%	3.4
COc1ccc(/C=N/Nc2nc3ccccc3o2)cc1OC	-0.5%	0.2	-0.1%	2.5	23.5	1.3%	-1.4%	0.0	10.2%	0.2
Cc1cccc(-c2nc3c(c(SCC(=O)N4CCCC4)n2)COC(C)(C)C3)c1	-1.9%[0.46 µM]	0.6	-0.7%	2.6	-23.7	2.6%	-0.8%	7.9	35.3%[activator]	13.2
O=C(N/N=C/c1ccncc1)c1ccc(NS(=O)(=O)c2cccs2)cc1	4.0%	3.9	0.4%	3.7	-9.8	9.2%	-0.2%	-10.7	4.6%	-1.2
CC(C)CCn1nnnc1CN1CCN(c2ccccc2)CC1	-0.7%	-11.0	-0.1%	-0.1	4.0	-2.5%	1.3%	-8.6	-4.7%	7.8
CSc1ccccc1NC(=O)c1ccc2c(c1)CCN2S(C)(=O)=O	.	-10.6	-0.4%	-4.6	-2.2	1.1%	1.3%	-1.0	6.1%	22.3
C=CCn1c(CCNC(=O)c2ccccc2F)nnc1SCC(=O)Nc1nc2ccccc2s1	-0.3%	-0.4	0.6%	4.5	-14.6	6.2%	3.8%	-11.2	8.6%	0.2
CC(C)CNc1nc(N)c([N+](=O)[O-])c(NC2CCCCC2)n1	.	-4.4	-0.2%	4.2	-0.6	1.6%	4.7%	3.6	4.1%	5.7
COc1cc2c(cc1OC)CN(C(=O)Cn1ccccc1=O)CC2	0.8%	16.7	-0.9%	-1.8	9.4	1.3%	.	4.7	23.0%	-1.5
CC1CC(C)CN(CCCn2c(=S)[nH]c3ccccc3c2=O)C1 (stereo unspecified)	-5.3%	-30.6	0.3%	1.7	-5.9	0.2%	1.1%	5.3	-5.9%	4.2
CCN(C(=O)CSc1nnc(-c2c[nH]c3ccccc23)o1)C1CCS(=O)(=O)C1 (stereo unspecified)	-1.6%	24.7	-0.3%	2.2	-2.9	-5.8%	-0.6%	.	9.9%	0.8
CCOc1cc(/C=N/N=C(/N)c2nonc2N)cc(Br)c1OCc1ccc(Cl)cc1	-8.5%	-3.9	-0.3%	-2.2	2.3	0.3%	-0.1%	-12.2	39.3%[activator]	-1.0
CCOC(=O)c1cc(C(=O)OCC)c2cccc(C)n2c1=O	0.6%	-1.7	-0.1%	0.9	-14.7	4.3%	2.8%	0.1	1.4%	-2.1
O=S(=O)(Nc1cccc(C(F)(F)F)c1)c1cnc[nH]1	-1.5%	-3.8	-0.3%	0.5	9.5	2.4%	-0.3%	7.5	9.3%	0.1
N#CC(c1cccc(C(F)(F)F)c1)(c1ncc(C(F)(F)F)cc1Cl)N1CCOCC1 (stereo unspecified)	-0.7%	-6.9	0.4%	-0.2	-1.9	-1.4%	-1.7%	4.4	1.6%	?
C=CCn1c(CCNC(=O)c2ccccc2F)nnc1SCC(=O)Nc1nc(C)cs1	0.4%	18.4	-0.5%	-1.2	-6.2	3.5%	1.9%	8.2	0.8%	2.3
CS(=O)(=O)N1CCc2cc(C(=O)O)ccc21	0.1%	13.2	-0.4%	1.0	4.5	0.0%	0.0%	10.1	3.7%	-1.9
CCN1CCCC1CNS(=O)(=O)c1c(C)cc(C)cc1C (stereo unspecified)	.	-10.3	-0.1%	0.7	41.1[activator]	-0.6%	3.5%	9.0	?	0.5
Cc1ccc(CNC(=O)Cn2cnc(S(=O)(=O)N3CCCCC3)c2)o1	.	3.6	0.5%	0.1	-5.3	2.4%	-3.8%	5.5	2.6%	-2.4
O=C(O)COCC(=O)Nc1ccc2c(c1)ncn2CCc1ccccc1	.	5.7	2.3%	5.1	2.0	7.8%	-1.9%	-1.4	9.6%	1.5
CCCCOC(=O)Cn1c(-c2ccccc2)nc2ccccc2c1=O	-4.7%	-4.8	-1.6%	3.7	3.3	-0.6%	.	10.3	7.5%	13.9
Cc1nn(-c2ccccc2)c2[nH]c(=O)c(CNCc3ccc4c(c3)OCO4)cc12	-9.8%	7.2	-0.5%	3.8	14.4	-6.2%	2.5%	10.7	-12.7%	-4.7
CC(C)C(C(=O)OCC(=O)c1ccc2c(c1)NC(=O)CO2)N1C(=O)c2ccccc2C1=O (stereo unspecified)	6.9%	-5.9	0.2%	0.7	-8.9	-1.5%	-1.2%	15.1	8.9%	21.9
COc1cccc(NC(=O)c2cc([N+](=O)[O-])ccc2NC(=O)CNCC2CCCO2)c1 (stereo unspecified)	-3.9%	-1.1	-0.1%	-0.5	-10.8	-0.3%	3.2%	11.3	-13.2%	1.8
Nc1ccccc1Oc1ncc(C(F)(F)F)cc1Cl	1.6%	-5.8	-0.2%	1.9	9.6	0.0%	1.4%	11.2	5.7%	5.6
COc1cc(C#N)ccc1OCC(=O)N1CCc2ccccc2C1	11.1%	5.2	-0.1%	0.0	11.3	-0.1%	7.7%	-8.1	-6.2%	-0.4
CCc1ccc(C2NC(=S)NC3=C2C(=O)CC(C)(C)C3)cc1 (stereo unspecified)	-2.0%	-7.1	-0.8%	4.8	-11.5	3.3%	-0.7%	-15.2	5.6%	13.0
Cc1ccccc1OCc1nc(-c2ccc(NC(=O)c3ccc4c(c3)OCO4)cc2)no1	-5.2%	-1.8	-0.7%	0.6	-2.6	1.2%	0.4%	0.7	-14.6%	?
